VDR inh: Inhibitors of the vitamin D receptor (VDR): qHTS. Vitamin D3 receptor (Homo sapiens), P11473. VDR-SRC2-3 peptide fluorescence polarization, 2 h. Potency, µM, without a hit: max response, negative = inhibition, hits mostly inhibitors. hit rate 0.93% among 400,000; active means well fitted inhibition curve with a large enough effect; inconclusive means small, poorly fitted or top-dose-only effect, or another doubt; inactive means no such curve, though single readings can be large or run the other way; further: series mostly up to about 120 µM
Target sequence (P11473 whole entry, looked up): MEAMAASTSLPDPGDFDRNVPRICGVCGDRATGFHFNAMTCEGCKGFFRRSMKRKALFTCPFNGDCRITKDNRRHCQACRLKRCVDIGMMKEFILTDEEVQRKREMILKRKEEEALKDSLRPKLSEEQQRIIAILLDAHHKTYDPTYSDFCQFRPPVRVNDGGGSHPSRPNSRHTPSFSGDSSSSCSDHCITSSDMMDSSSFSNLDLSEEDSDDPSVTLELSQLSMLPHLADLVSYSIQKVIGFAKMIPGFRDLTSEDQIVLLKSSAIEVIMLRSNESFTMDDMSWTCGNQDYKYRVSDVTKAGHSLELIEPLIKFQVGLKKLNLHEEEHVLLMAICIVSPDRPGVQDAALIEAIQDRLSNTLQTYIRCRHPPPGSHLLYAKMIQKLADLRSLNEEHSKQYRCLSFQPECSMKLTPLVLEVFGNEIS
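Reagent solutions, kept cold and dark, are dispensed first; compounds are then pinned in at 23 nl, plates briefly spun, and incubated 2 h at ambient temperature. Inhibition of VDR–SRC2-3 peptide binding is read by fluorescence polarization.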
Active calls of the source: *; ? = inconclusive. On the % scale 0 is the no-effect control and ±100 the full control effect; potency means the concentration at half of the fitted maximal effect. Some of the compounds tested; rates above refer to the full screens.

SMILES	VDR inh
CC(=O)Nc1ccc(S(=O)(=O)N2CCSC2)cc1	5%
Nc1ccccc1SCC(=O)Nc1ccc(N2CCOCC2)cc1	?
Cn1cccc1C(=O)N1CCC2(CCCN(C(=O)Nc3ccccc3)C2)CC1	-3%
CCOc1ccc(NC(=O)CN(C)C(=O)CCNC(=O)c2ccc(Br)cc2)cc1OCC	-5%
CCN1CCN(C(=O)C2CCN(C(=O)c3cc4sccc4n3CC)CC2)CC1	-4%
Cc1ccc2nc3c(c(C(=O)O)c2c1)CCC3	2%
COc1cc2c(cc1OC)CN(CC(=O)Nc1ccc3c(c1)OC(F)(F)O3)CC2	-7%
C=CC[C@H](CC(=O)NCCO)C(=O)N[C@@H](COC(=O)[C@@H](CC=C)CC(=O)OC(C)(C)C)Cc1c[nH]c2ccccc12	4%
Cc1csc(NC(=O)CSc2ncn(-c3ccccc3)n2)n1	1%
Clc1ccc(-n2nnnc2-c2cnc(-c3ccncc3)nc2-c2cccs2)cc1	4%
O=C(Cc1ccc(F)cc1)N1CCC(N2CCC(C(=O)N3CCOCC3)CC2)CC1	19%
CCOc1ccc(C(=O)Nc2cc3c(cc2N2CCCC2)n(CC)c(=O)n3CC)cc1OCC	21%
CC(C)NS(=O)(=O)c1ccc(CCC(=O)Nc2ccc3c(c2)OCCO3)cc1	5%
O=C1C(Cc2ccccc2)Nc2ncnc(N3CCN(c4ccccc4)CC3)c2N1Cc1ccc(Cl)cc1 (stereo not given)	-5%
CCCCNCc1nc2ccccc2c(=O)[nH]1	28%

Some of the entries so far, field by field.
Clc1ccc(-n2nnnc2-c2cnc(-c3ccncc3)nc2-c2cccs2)cc1
  VDR inh = 4%
O=C(Cc1ccc(F)cc1)N1CCC(N2CCC(C(=O)N3CCOCC3)CC2)CC1
  VDR inh = 19%
CCOc1ccc(C(=O)Nc2cc3c(cc2N2CCCC2)n(CC)c(=O)n3CC)cc1OCC
  VDR inh = 21%
CC(C)NS(=O)(=O)c1ccc(CCC(=O)Nc2ccc3c(c2)OCCO3)cc1
  VDR inh = 5%

Quoted at random: 6 records from the list
SMILES	VDR inh
COc1cc2c(cc1OC)CN(CC(=O)Nc1ccc3c(c1)OC(F)(F)O3)CC2	-7%
CCOc1ccc(NC(=O)CN(C)C(=O)CCNC(=O)c2ccc(Br)cc2)cc1OCC	-5%
Cn1cccc1C(=O)N1CCC2(CCCN(C(=O)Nc3ccccc3)C2)CC1	-3%
CC(C)NS(=O)(=O)c1ccc(CCC(=O)Nc2ccc3c(c2)OCCO3)cc1	5%
CCN1CCN(C(=O)C2CCN(C(=O)c3cc4sccc4n3CC)CC2)CC1	-4%
Clc1ccc(-n2nnnc2-c2cnc(-c3ccncc3)nc2-c2cccs2)cc1	4%

The results go on.
SMILES	VDR inh
COC(=O)c1ccccc1NC(=O)Oc1ccc(F)cc1	23%
CCOC(=O)c1c(NC(=O)CN2CCOCC2)sc2c1CCCC2=O	-5%
Cc1c(NC(=O)NC(=O)c2ccc(F)cc2)c(=O)n(-c2ccccc2)n1C	-10%
CCOC(=O)Cc1csc(NC(=O)CSc2nnc(C)n2C)n1	0%
Nc1ncnc2c1ncn2[C@@H]1O[C@H](CNC(=O)[C@H](N)Cc2cscn2)[C@@H](O)[C@H]1O	-7%
O=S1(=O)N=C(N=Nc2c(O)[nH]c3ccccc23)c2ccccc21	2%
c1coc(-c2ncc[nH]2)c1	5%
COc1cc2c3cc1Oc1cc(ccc1O)CC1c4c(cc(OC)c(O)c4Oc4ccc(cc4)CC3N(C)CC2)CC[N+]1(C)C (stereo not given)	-3%
CCN=C1S/C(=C\c2ccc(Sc3ccc(Cl)cc3)o2)C(=O)N1CC	3%
CC1CCN(CCCOc2ccc(Cl)cc2Br)CC1	2%
O=C(COc1ccc(Cl)cc1Cl)NNC(=S)NCc1ccco1	6%
N#CC1=C(N)OC2=C(C(=O)CCC2)C1c1ccsc1 (stereo not given)	-2%
CCOC(=O)C(C)Sc1nnc2cc(C)c3ccccc3n12 (stereo not given)	2%
CCc1cc(C(=O)Nc2ccccc2N2CCOCC2)sc1C	-4%
COCCCn1c(O)c(/C=C2\N=C(C#N)C(=Nc3ccc(C)cc3)O2)sc1=S	-1%
Cc1csc(NC(=O)c2cccnc2Cl)n1	5%
CN1C(=O)c2cccc3c(S(=O)(=O)N4CCCC4C(=O)O)ccc1c23 (stereo not given)	8%
CC(C)Oc1cccc(C(=O)C2CCCN(C(=O)c3ccccn3)C2)c1 (stereo not given)	2%
CCCN1CCN(C(=O)Cn2cnc3ccc(S(=O)(=O)N4CCC(C)CC4)cc3c2=O)CC1	-1%
O=C(NCc1nc2ccccc2[nH]1)C1=C[C@H](c2ccccc2)C[C@H](OCc2ccc(CO)cc2)O1	4%
CN1C(C(=O)NCc2cccc(Br)c2)CC2Cn3c(nc4ccccc43)C21 (stereo not given)	-12%
C/C(=N/NC(=O)c1nnn(-c2nonc2N)c1COc1ccccc1)c1ccc(O)cc1	25%
Oc1ccccc1C1C=C(c2ccc3c(c2)OCO3)NC(c2ccc(Br)cc2)N1 (stereo not given)	-27%
N#Cc1cc([N+](=O)[O-])ccc1NC(=O)COC(=O)CN1C(=O)C2CCCCC2C1=O (stereo not given)	-8%
O=C(NC1CCCC1)C1CCN(c2cnccn2)CC1	5%
COC(=O)[C@H](C)NC(=O)Nc1ccccc1F	7%
CCN(CCn1cccn1)C(=O)CC1C(=O)NCCN1Cc1ccc(F)cc1 (stereo not given)	?
CCOC(=O)c1c(C)[nH]c(C(=O)NCCN2CCOCC2)c1C	12%
Cc1cc(O)c(C=Nc2cccc(Cl)c2)c(=O)o1	-7%
COc1ccccc1Nc1nc(N)nc(CN2CCCCCC2)n1	9%

Molecules listed so far that have a COOH group (2):
SMILES	VDR inh
Cc1ccc2nc3c(c(C(=O)O)c2c1)CCC3	2%
CN1C(=O)c2cccc3c(S(=O)(=O)N4CCCC4C(=O)O)ccc1c23 (stereo not given)	8%

Later entries.
SMILES	VDR inh
CCC1(c2ccc(OC)cc2)NC(=O)N(CC(=O)c2ccc3c(c2)OCCO3)C1=O (stereo not given)	5%
Cc1cc(C)nc(NC(=O)c2ccc(Br)s2)n1	3%
CCC(C)(C)NC(=O)CN(C(=O)CNS(=O)(=O)c1ccccc1)c1ccc2c(c1)OCCO2	-15%
Cc1cc(N=Nc2ccc(Cl)cc2)cc(CN2CCOCC2)c1O	-14%
COC(=O)c1ccccc1NC(=O)COC(=O)CSc1nnc(N)s1	9%
COCCCN1C2=C(C(=O)CC(C)(C)C2)C(c2ccc(OC)c(OC)c2)C2=C1CC(C)(C)CC2=O	-6%
COc1cc(Cl)ccc1NC(=O)COc1ccccc1C(=O)NN	-10%
CC(C)c1ccccc1OCCNC(=O)c1cncc(Br)c1	-5%
O=C(c1ccccc1)c1cc(-c2ccccc2)on1	16%
COC(=O)c1ccc(C(=O)OC)c(NC(=O)C2CCCO2)c1 (stereo not given)	-2%
COc1ccc(C)cc1NC(=O)c1cc(S(=O)(=O)N2CCCCC2)c[nH]1	16%
Cc1ccc(F)c(N=Cc2c(O)c3ccccc3oc2=O)c1	-3%
CC(C)(C)C(=O)Nc1nc2cc3c(cc2s1)OCO3	-22%
Fc1cc(F)cc(Nc2nc(Cl)nc(NC3CCCC3)n2)c1	3%
Brc1ccc(-c2nc3ncccn3c2Nc2ccc3c(c2)OCCO3)o1	0%
CCCCCC(C)NC(=O)c1cc(S(=O)(=O)N2CCCCC2)ccc1N1CCOCC1 (stereo not given)	5%
COc1ccc(OC)c(/C=C/C(=O)OCC(=O)N2CCCC2)c1	3%
CCc1cccc(C)c1NC(=O)Cn1c(=O)n(-c2ccc(C)cc2)c(=O)c2c1cnn2C	1%
CC1CCN(CCCNC(=O)c2ccc(CS(=O)(=O)Cc3ccc(Cl)cc3)o2)CC1	-12%
CC(C)NC(=O)COC(=O)c1ccccc1Oc1ccccc1	-18%
CCCN(CC1CC1)C(=O)COC(=O)c1oc2c(F)cccc2c1C	1%
O=C(O)c1cc(S(=O)(=O)N2CCOCC2)ccc1N1CCCCC1	-7%
O=C(O)C1Sc2[nH]c(=O)sc2C2c3ccc(O)cc3OC(=O)C12 (stereo not given)	0%
COc1cc(NC(=O)c2cccc(S(=O)(=O)N3CCCCC3)c2)cc(OC)c1OC	21%
COc1ccc(OCC(=O)NNC(=O)Nc2cccc(Cl)c2)cc1	-15%
CCOC(=O)CCN(C(=O)Nc1ccccc1)C1CCCCC1	0%
C(=N\Nc1nc(N2CCOCC2)nc(N2CCOCC2)n1)/c1ccncc1	2%
COc1ccc(OCCCC(=O)OCC(=O)Nc2c(C)nn(-c3ccccc3)c2C)cc1	-15%
Cc1cccc(-n2cnc3c(sc4nc(N5CCOCC5)c5c(c43)CCCC5)c2=O)c1	-3%
COc1ccc(NC(=O)CSc2nnnn2-c2ccccc2OC)c(OC)c1	16%
C=CCn1c(C)nc2ccccc2c1=O	-16%
Cc1ccc(CSc2ncnc3c2cnn3Cc2ccccc2)cc1	9%
CN(C)/N=C/c1ccc(OC(=O)c2cccc([N+](=O)[O-])c2)cc1	-20%
CCc1cc2c(=O)c(-c3ccc(F)cc3)c(C)oc2cc1OCC(=O)O	14%
O=C(CN1C(=O)NC2(CCCCC2)C1=O)Nc1cc(C(F)(F)F)ccc1N1CCCCC1	-19%
COC(=O)C1=C(C)N=c2s/c(=C/c3cccs3)c(=O)n2C1c1cccs1 (stereo not given)	1%
CC(=O)N/C(=C\c1ccc(F)cc1)C(=O)NC(Cc1c[nH]c2ccccc12)C(=O)O (stereo not given)	-16%
C[C@H]1COC(=O)[C@@H](CC(=O)OC(C)(C)C)C/C=C\C[C@H](CC(=O)NCCO)C(=O)N1	-16%
CCC(=O)Nc1ccc(Oc2ccc(NC(=O)CC)c(NC(=O)CC)c2)cc1	-10%
CCc1nc2ccc(C(=O)N3CCN(c4ccc([N+](=O)[O-])cc4)CC3)cc2nc1CC	-1%
O=C1CCC(C(=O)Nc2cccc(Br)c2)N1 (stereo not given)	-10%
O=C(CSc1nc2c(sc3ccccc32)c(=O)n1CCCN1CCOCC1)NCC1CCCO1 (stereo not given)	-15%
COc1ccc(Nc2nc(N3CCOCC3)nc(N3CCOCC3)n2)cc1Cl	1%
COc1ccc(NC(=O)C/C(C)=N/NC(=O)c2ccncc2)c([N+](=O)[O-])c1	3%
COc1cc(C)c(/C=C(\C#N)C(=O)Nc2ccc(C)cc2)cc1C(C)C	-11%
Cc1ccc(C)c(NC(=O)Cc2ccc(S(=O)(=O)N3CCCCC3)s2)c1	-2%
CNC(=O)/C(C#N)=C/c1c(N2CCN(c3ccccc3)CC2)nc2c(C)cccn2c1=O	0%
Cc1ccc(-c2noc(C3CCCN(C(=O)c4ccc(C(C)(C)C)cc4)C3)n2)o1 (stereo not given)	-6%
CC(C)Oc1ccc(C(=O)NC(=S)N2CCOCC2)cc1	-13%
CCCc1nc2ccccc2c(C(=O)OC2CCOC2=O)c1CC (stereo not given)	3%
COc1ccc(NC(=O)CN2C(=O)COc3ccc(S(=O)(=O)Nc4ccccc4)cc32)cc1OC	2%
CCOc1ccc(CN2CCN(Cc3cc4c(cc3Cl)OCO4)CC2CCO)cc1 (stereo not given)	2%
CCSc1nnc(-c2cccc(S(=O)(=O)N(C)C)c2)n1-c1cc(OC)ccc1OC	8%
COc1ccc(-c2noc(CN(C(=O)C(C)Oc3ccc(C)cc3)C(C)C)n2)cc1 (stereo not given)	6%
Cc1cccc(S(=O)(=O)NC2CCCCCCC2)c1	1%
Cn1c(=O)c2c(nc(N3CCOCC3)n2CCCNC2=NCCCCC2)n(C)c1=O	-3%
O=C(c1ccco1)N1CCN(C(=O)C2CC(=O)N(c3ccccc3)C2)CC1 (stereo not given)	1%
CN(C)C(=O)CCc1ccc2c3c([nH]c2c1)[C@]1(C)[C@@H](C(=O)N2CCCCC2)C[C@H](CC(=O)NCCc2ccccn2)C(=O)N1CC3	-14%
CCC1CCCCN1C(=O)NC(=O)c1ccccc1 (stereo not given)	0%
COc1cccc(C2CC(c3ccccc3C)n3nc(N)nc3N2)c1 (stereo not given)	-12%

Copied from the list:
VDR inh with O=C(CSc1nc2c(sc3ccccc32)c(=O)n1CCCN1CCOCC1)NCC1CCCO1 (stereo not given) : -15%
VDR inh with COC(=O)c1ccccc1NC(=O)Oc1ccc(F)cc1 : 23%
VDR inh with Cc1ccc2nc3c(c(C(=O)O)c2c1)CCC3 : 2%
VDR inh with CCN=C1S/C(=C\c2ccc(Sc3ccc(Cl)cc3)o2)C(=O)N1CC : 3%
VDR inh with COC(=O)C1=C(C)N=c2s/c(=C/c3cccs3)c(=O)n2C1c1cccs1 (stereo not given) : 1%
VDR inh with COc1ccc(NC(=O)CSc2nnnn2-c2ccccc2OC)c(OC)c1 : 16%

Going on with the list:
SMILES	VDR inh
CCCCNC(=O)c1ccc2c(c1)ncn2-c1cc(OC)ccc1OC	9%
CCN(CC)c1ccc(/C=N/NC(=O)c2cnccn2)c(O)c1	-20%
CCc1ccc2oc(=O)cc(CN3CCOCC3)c2c1	-6%
O=C(COc1coc(CN2CCCc3ccccc32)cc1=O)Nc1cccc([N+](=O)[O-])c1	-13%
O=C(/C=C/c1ccco1)NCC1COc2ccccc2O1 (stereo not given)	?
CC1CCCC(C)N1NC(=S)Nc1ccc(OC(F)F)cc1 (stereo not given)	-28%
O=c1[nH]c(/C=C\c2cccnc2)c([N+](=O)[O-])c(=O)[nH]1	-11%
CCOC(=O)c1ccc(N=C2SC(C(=O)NC)CC(=O)N2CCc2ccccc2)cc1 (stereo not given)	-12%
CNc1oc(-c2ccccc2Cl)nc1C#N	-9%
O=C(O)CSC12CC3CC(C1)CC(C(=O)O)(C3)C2	-7%
COc1ccc(S(=O)(=O)Nc2cc(SCC(=O)O)c(O)c3ccccc23)cc1	?
COC(=O)c1cnn(C(=O)c2cc(OC)ccc2Br)c1N	6%
COc1cc(-c2nc(-c3ccc4c(c3)-c3ccccc3S4(=O)=O)c(-c3ccccc3)[nH]2)cc(OC)c1OC	23%
